Compound activity as filed in PubChem BioAssay.
CtBP-E1A blk – inhibitors of CtBP/E1A interaction. 340,000 compounds, 0.49% hits. activity change, % (test concentration not listed). AlphaScreen GST-E1A/His-CtBP binding, 1536-well; hits give low values; control for the full effect not named in the record; in the data active means activity change below about -65%; inconclusive means about -30% to -65%; inactive means above about -30%; further: on the % scale 0 is the no-effect control and ±100 the full control effect
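Protein mix (5X: 125 nM each GST-E1A, His-CtBP) was incubated with pinned compound 2 h at 37 deg C in dark, in 50 mM Tris pH 8.0 buffer with 300 mM NaCl. Glutathione donor and nickel acceptor beads followed; AlphaScreen signal read after 1 h.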
PINK1 expr mod – changes PINK1 expression; PINK1 immunofluorescence, high-content cytometry, 24 h; Potency, µM (doses to about 76.6 µM), for inactives: top-dose activation (PINK1 increase), most hits filed as activators; 410,000 compounds, 0.2% hits; AID 624263; active = well fitted activation curve with a large enough effect; inconclusive = small, poorly fitted or top-dose-only effect; inactive = flat fitted curve, though single readings scatter; cell line not stated here;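 further: potency means the concentration at half of the fitted maximal effect; % of control where 0% means no effect; nearly all actives have a fitted effect of over 65% in size; a mitochondrial uncoupler was the plate control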
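Compound titrations (5 concentrations, 24 h) on a stable cell line; DMSO and CCCP controls. Endpoint: fixed-cell PINK1 immunofluorescence with mitochondrial, cell and nuclear markers, scanned by microplate cytometer.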
TRPV1 PAM – potentiators of human vanilloid receptor 1 (TRPV1); Q8NER1; TRPV1-expressing cells, Fluo-8 calcium influx, capsaicin EC20 potentiation; host cell line not named in the record; control for the full effect not named in the record; potentiation, % at 8.33 µM; 320,000 compounds, 0.02% hits; AID 540277; active means potentiation above 80%; inconclusive means 30% to 80%; inactive means below 30%; further: 0% is about no effect
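Cells expressing TRPV1 were dye-loaded with Fluo-8 and read kinetically: 10 s baseline, 3 min after compound (agonist portion), then 2 min after EC20 capsaicin (allosteric enhancer portion). Calcium-bound dye fluorescence at 480/520 nm.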
D2 agonist – human D2 receptor agonism in beta-arrestin assay; DiscoveRx PathHunter D2 beta-arrestin, luminescence, 90 min; 100% = 57 uM dopamine signal; activation, % (concentration not given with the values); 360,000 compounds, 0.084% hits; AID 624465; in the data active = activation above about 40%; inconclusive = about 15% to 40%; inactive = below about 15%; further: the text of the record calls up to 30% inactive
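Agonist mode: compounds alone added to overnight-plated D2 PathHunter cells for 90 min at 37 C, with 57 uM final dopamine (EC100) defining full response. Beta-arrestin recruitment detected by chemiluminescent reagent, read after 1 h at ambient temperature.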
Sfp inh – Sfp phosphopantetheinyl transferase inhibition | Q9F4F7 | 310,000 compounds, 3.5% hits | AID 1490 | Biochemical Sfp PPTase activity, qHTS | Potency, µM, inactives show max response, negative = inhibition, actives largely listed as inhibitors; active means well fitted inhibition curve with a large enough effect; inconclusive means small, poorly fitted or top-dose-only effect, or another doubt; inactive means no such curve, though single readings can be large or run the other way;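 further: the enzyme is Sfp with the accession as filed and its product quenches rhodamine fluorescence; potency means the concentration at half of the fitted maximal effect; 0% = enzyme reaction without inhibitor and -100% = no enzyme wells; top concentration of the series not given in the record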
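Buffer: 50 mM Hepes-Na pH 7.6, 10 mM MgCl2, 0.01% Nonidet P-40, 0.01% BSA. Enzyme 15 nM, pre-exposed to compound 15 min; substrates then added and fluorescence change tracked over 30 min.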
Six1-Eya2 inh – inhibitors of human Six1/Eya2 interaction; AlphaScreen GST-Six1/His-Eya2 binding, biochemical; hits give low values; control for the full effect not named in the record; activity change, % (test concentration not listed); 360,000 compounds, 0.56% hits; AID 651725; in the data active = activity change below about -65%; inconclusive = about -30% to -65%; inactive = above about -30%; further: on the % scale 0 is the no-effect control and ±100 the full control effect
Target sequence (O00167 whole entry, looked up): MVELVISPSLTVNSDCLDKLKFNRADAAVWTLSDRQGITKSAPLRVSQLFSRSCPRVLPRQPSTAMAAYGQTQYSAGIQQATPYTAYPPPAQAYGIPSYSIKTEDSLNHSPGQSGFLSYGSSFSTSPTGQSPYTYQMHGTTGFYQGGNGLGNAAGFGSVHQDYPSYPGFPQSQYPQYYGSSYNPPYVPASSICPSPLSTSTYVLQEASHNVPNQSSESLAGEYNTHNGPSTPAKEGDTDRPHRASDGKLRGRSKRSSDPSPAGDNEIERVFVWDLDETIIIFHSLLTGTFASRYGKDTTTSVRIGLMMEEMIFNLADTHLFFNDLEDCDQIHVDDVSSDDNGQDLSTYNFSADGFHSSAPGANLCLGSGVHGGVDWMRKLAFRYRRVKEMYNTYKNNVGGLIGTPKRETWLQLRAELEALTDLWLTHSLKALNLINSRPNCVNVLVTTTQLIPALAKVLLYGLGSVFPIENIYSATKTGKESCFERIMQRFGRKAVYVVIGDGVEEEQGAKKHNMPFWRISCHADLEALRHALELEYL
Target sequence (Q15475 whole entry, looked up): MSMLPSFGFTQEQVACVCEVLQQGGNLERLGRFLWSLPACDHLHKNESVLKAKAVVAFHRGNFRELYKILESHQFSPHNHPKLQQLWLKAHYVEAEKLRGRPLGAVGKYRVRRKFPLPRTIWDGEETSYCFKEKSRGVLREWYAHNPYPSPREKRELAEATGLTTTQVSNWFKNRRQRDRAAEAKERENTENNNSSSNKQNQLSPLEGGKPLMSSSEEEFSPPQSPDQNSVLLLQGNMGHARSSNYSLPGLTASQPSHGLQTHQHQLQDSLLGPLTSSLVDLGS
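AlphaScreen with GST-Six1 and His-Eya2 (5X mix: 250 nM and 500 nM), glutathione donor and nickel acceptor beads; buffer 50 mM Tris pH 8.0, 300 mM NaCl, 1 mM TCEP; 1 h at 37 C in the dark.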
D2 potentiator – positive allosteric modulators of human D2 dopamine receptor. P14416. DiscoveRx D2 beta-arrestin cells, luminescence, 90 min; 100% = 57 uM dopamine signal. potentiation, % (no concentration beside the values). 360,000 compounds, 0.23% hits. AID 624464; active = potentiation of 50% or more; inconclusive = 30% to 50%; inactive = 30% or less;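 further: compound concentration not given in the record; tested on top of an EC20 dose of dopamine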
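D2 cells co-treated with compound plus 50 nM dopamine (EC20) for 90 min at 37 deg C to detect potentiation. Beta-arrestin recruitment was read as enzyme-fragment luminescence after 1 h at ambient temperature. Full response was set by 57 uM dopamine.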
Numbers without * were called inactive; ? = inconclusive; . = no result given; & = joins results of further samples; [ ] = another dose, or the depositor's remark.

SMILES	CtBP-E1A blk	PINK1 expr mod	TRPV1 PAM	D2 agonist	Sfp inh	Six1-Eya2 inh	D2 potentiator
N#Cc1c(NC(=O)C2CC(c3ccccc3O)=NO2)sc2c1CCC2 (stereo not given)	-5	0.4%	4	-2.6	25µM*	4	7
Cc1ccc(-n2nc(C)c3c(C)c(CCC(=O)NC(C)c4ccccc4)c(C)nc32)cc1 (stereo not given)	4	2.4%&13%	-28	-3.9	4%	1	-7
Cc1cc(-n2nc(C)cc2C)n2ncc(-c3ccccc3)c2n1	9	-0.6%	-1	-2.6	-3%	8	0
Cc1ccc(NC(=O)CCS(=O)(=O)c2ccc3nc(C)sc3c2)cc1	4	1.4%&-0.3%	-2	-3.2	11%	10	-5
COc1cc2c(cc1OC)C(c1cccs1)N(C(=O)C(C)C)CC2 (stereo not given)	0	.	9	-1.9	4%	2	-2
CCOc1cc(-c2c(C#N)c(N)nc3c2CCc2ccccc2-3)ccc1O	2	8.3%	5	-6.1	-6%	-3	-26
Cc1cccc(CSc2nc3c(cc2C#N)CCC3)c1	8	-1.2%	-2	-0.6	-2%	6	-8
CCOC(=O)C1CCCN(C(=O)/C=C/c2cccc([N+](=O)[O-])c2)C1 (stereo not given)	4	-1.2%	-45	-1.6	-1%	5	-13
COc1ccc(CCN(C)C(=O)C2CCN(Cc3cccc(OC)c3OC)CC2)cc1OC	-8	-0.3%	-3	-0.4	-28%	6	-7
Cc1ccc(-c2nc3ccccc3[nH]2)cc1N	1	.	-12	-3.9	0%	-2	-26
CCNC(=S)Nc1cccc(Cl)c1C	-1	0.8%	4	-2.6	15%	-2	-4
CCN(CC)CC1C(=O)N(c2ccc(OC)cc2)C1c1ccccc1 (stereo not given)	-1	1.4%	?	-1.0	-1%	0	-14
Cn1ccnc1SCc1ccc(Cl)cc1Cl	-3	0.7%	22	-3.5	1%	5	-7
Cc1cc(C(=O)Nn2c(-c3ccc(Br)cc3)nc3ccccc3c2=O)ccc1[N+](=O)[O-]	-11	?	-8	2.9	18%	-13	-1
Cc1ccnc(NC(=O)CCCc2ccccc2)c1	8	2.8%	6	-1.8	3%	0	-3
O=C1c2cccc(-c3ccc(C(F)(F)F)cc3)c2C2CC=CCN12 (stereo not given)	0	3.6%	.	-0.9	.	-7	1
Cc1ccc(C(=O)NCCCNC(=O)Cc2ccc(Cl)cc2)cn1	9	-0.5%	9	-0.7	.	9	-4
O=C(CN1C(=O)c2ccccc2S1(=O)=O)NCc1c(F)cccc1F	0	2.3%	13	0.5	.	0	-3
Cc1ccc(CNC(=O)c2cnccn2)cc1	-4	0.1%	-6	-3.8	5%	2	-13
COc1ccc2[nH]c(=O)c(CN(Cc3cccs3)C(=S)NCC3CCCO3)cc2c1 (stereo not given)	.	2.6%	0	-1.4	-9%	-4	-8
CCCC(c1nnnn1Cc1ccccc1)N1CCC(C(N)=O)CC1 (stereo not given)	-2	0.0%	24	-4.3	11%	-2	-42
CCC(C)NC(=O)C1CCCCN1S(=O)(=O)c1ccc(F)cc1 (stereo not given)	8	.	-15	0.4	11%	0	4
Clc1cccc(CN2C3=NCCCN3c3ccccc32)c1	2	-0.7%	5	1.0	-29%	3	-4
CCOC(=O)c1cc2ccccc2nc1C	53	5.4%[38.3 µM]	-13	4.0	0%	26	0
O=C(OCC(=O)c1ccc[nH]1)C1=COCCO1	-3	1.0%	24	0.3	.	-6	-1
CCOc1ccccc1NC(=O)CN1C(=O)COc2ccc(C)cc21	-3	-1.6%	-4	1.6	6%	-7	-2
COC(=O)c1ccccc1NC(=O)NCCc1ccc(OC)c(OC)c1	5	1.2%	-4	-8.6	8%	-10	-21
CCC(=O)Nc1c(C)nn(-c2ccc(C)c(C)c2)c1C	0	0.0%	0	-2.8	5%	7	1
COc1cccc(N2CCN(C(=O)c3cccc(N4C(=O)NC5CC4(C)Oc4c(OC)cccc45)c3)CC2)c1 (stereo not given)	-1	1.0%	23	-3.4	14%	2	-5
Cc1ccc(-c2cc(C(=O)NCc3ccco3)no2)cc1	3	1.9%[38.3 µM]	-10	1.0	12%	5	-4
Cc1ccc2nc(CN(C)C(=O)[C@H]3O[C@@H](n4ccc(=O)[nH]c4=O)[C@H](O)[C@@H]3O)[nH]c2c1	5	0.4%	.	1.3	.	4	-3
CN1/C(=C\C=C(/C#N)C(=O)Nc2ccc(Cl)cc2)C(C)(C)c2ccccc21	11	?	-6	-2.4	18%	-5	-16
COc1cc(NC(=O)CCNS(=O)(=O)c2cc(Br)cnc2N)cc(OC)c1	-11	0.6%	8	-1.4	0%	5	-16
COc1cc(C(c2nnnn2C(C)(C)C)N2CCN(c3nc4ccccc4s3)CC2)ccc1O (stereo not given)	5	1.7%	6	-0.9	25µM*	-2	5
CCOC(=O)c1ccccc1NC(=S)N1CCCCC1	4	-0.1%	-3	-3.4	-7%	5	-4
CC(C)[C@H](NC(=O)c1ccccc1)C(=O)OCC(=O)N1CC(=O)Nc2ccccc21	-8	0.0%	-1	0.0	12%	5	-14
CCN(CC)C(=O)C12CC3CC(CC(Br)(C3)C1)C2	0	-2.2%	-10	0.5	21%	1	0
CSc1c(CC(=O)Nc2ccccc2)n(C)c2ccccc12	.	4.3%	-7	-2.8	13%	-1	-9
CN1CCN(/N=C/c2ccc(Cl)c(Cl)c2)CC1	7	0.1%	-11	-6.1	-12%	-6	-29
CC1(C)CC(NC(=S)NCc2ccco2)CC(C)(C)N1	.	-0.2%	7	-3.1	10%	2	-6
CC(C)(C)C(=O)NC(=S)Nc1cc(C(=O)O)ccc1Cl	6	-0.9%	-1	-1.6	5%	-1	18
Cc1ccc2c(c1)cc(C)c1nnc(SCC(=O)NCc3ccco3)n12	5	.	-2	-1.4	-7%	-25	-22
CCCCN(CC)CCCNC(=O)c1ccc2c(c1)N(CC)C(=O)c1ccccc1S2(=O)=O	1	0.1%	10	-3.1	2%	0	-35
COc1cccc2sc(Nc3nnc(-c4cccs4)o3)nc12	-4	3.4%	22	1.7	8%	-1	2
Cc1cc(C)n(-c2nncn2/N=C/c2ccccc2F)n1	0	1.1%	1	-1.5	21%	1	-6
O=C(CN1CCN(S(=O)(=O)c2ccc(F)cc2)CC1)NCc1cccs1	2	0.4%	-15	2.3	.	7	-2
C=CCc1cccc(/C=N/c2nc3ccccc3n2CC)c1O	14	1.2%	4	-5.2	22%	-3	-9
COc1ccc(-c2nn(-c3ccccc3)cc2C#N)cc1	12	14%	-16	4.9	5%	19	2
CN(C)S(=O)(=O)N1CCN(C(=O)c2ccccc2Cl)CC1	4	-5.2%[38.3 µM]	-15	-1.3	7%	7	-13
Cc1cccc(N2CC(C(=O)Nc3ccccc3N3CCOCC3)CC2=O)c1C (stereo not given)	6	0.7%	.	3.5	.	-6	-10
CCCCC(=O)N/N=C/c1cc([N+](=O)[O-])ccc1N1CCOCC1	-9	-0.2%	-1	-0.4	-14%	1	-3
CN(C)Cc1nc2c([nH]1)c(=O)n(C)c(=O)n2C	2	1.9%	21	-0.4	56µM*	-5	-1
CCOc1ccc(NC(=O)CCC(=O)Nc2nnc(CC)s2)cc1	6	-0.3%	15	0.2	4%	2	-3
CCCn1c(C(O)c2cc(OC)c(OC)c(OC)c2)nc2ccccc21 (stereo not given)	.	-1.9%	13	6.8	10%	0	1
Cc1ccc(CSc2nnc(-c3cccc(S(=O)(=O)N4CCOCC4)c3)n2CC(C)C)cc1	-7	-1.5%	-8	1.6	-12%	0	-13
Cc1ccc(SCC(=O)c2c(C)nc3cc(C)ccn23)cc1	-5	3.1%	-8	-3.8	12%	-6	-3
O=C(O)c1cc(N2C(=O)C3CC=CCC3C2=O)ccc1NCc1cccnc1 (stereo not given)	-1	1.8%	4	1.5	4%	1	2
O=C1C=C(c2ccc(F)nc2)CCC1	1	-1.1%	.	-0.7	.	3	-6
CN1CCC(NC(=O)c2cccc(Oc3ccccc3)c2)CC1	3	-0.4%	0	-3.6	-5%	5	-38
COC(=O)/C(=C/c1c[nH]c2ccccc12)[N+](=O)[O-]	8	-0.7%[38.3 µM]	12	1.1	-22%	0	12
More structures:
SMILES	CtBP-E1A blk	PINK1 expr mod	TRPV1 PAM	D2 agonist	Sfp inh	Six1-Eya2 inh	D2 potentiator
O=C(Cn1cnc2sc3c(c2c1=O)CCCC3)NCC(=O)Nc1ccc(F)cc1F	0	-0.5%	-5	3.2	-7%	-2	6
COc1ccc(-c2cc(CNC(C)=O)on2)cc1	-1	-0.3%	?	-3.1	13%	7	-16
COCCCNC(=O)CN(CCc1ccccc1)S(=O)(=O)c1ccc(C)cc1	6	2.1%	-20	-0.7	-3%	6	-2
CCn1ncc(CN2CCN(Cc3cccc(OC)c3)C(CCO)C2)c1C (stereo not given)	-9	2.1%	5	-4.9	6%	12	-11
C[C@H](CO)N1C[C@H](C)[C@@H](CN(C)S(=O)(=O)c2cccc(F)c2)OCc2cn(nn2)CCCC1=O	4	1.4%	.	-13	.	-2	-5
CSCC[C@@H](C(=O)Nc1ccc2c(c1)OCCO2)N1Cc2ccccc2C1=O	-24	-1.0%	-3	7.3	2%	-5	-19
CCS(=O)(=O)c1nc(S(=O)(=O)c2ccc(C)cc2)c(NCCCN2CCCC2=O)s1	-11	-1.2%	3	8.8	1%	5	-4
Cc1ccc(C)c(C(=O)CCC(=O)Nc2ccc(N3CCN(C)CC3)cc2C)c1	-4	2.7%	.	-3.0	.	-10	0
Cc1[nH]c2ccccc2c1NC(=O)CN1CCN(C(=O)c2ccco2)CC1	-4	-0.7%	-8	54*	45µM*	-1	?
COc1cc(C2N=C(c3ccccc3)NO2)cc(Br)c1O (stereo not given)	-1	2.8%	-15	-2.4	0%	-7	-8
NC(=O)CSc1c[nH]c2ccccc12	10	-0.7%	-7	-4.2	-3%	0	-1

4 entries already listed, arranged by the value under Six1-Eya2 inh, ascending:
Structure | Six1-Eya2 inh
Cc1ccc(C)c(C(=O)CCC(=O)Nc2ccc(N3CCN(C)CC3)cc2C)c1 | -10
C[C@H](CO)N1C[C@H](C)[C@@H](CN(C)S(=O)(=O)c2cccc(F)c2)OCc2cn(nn2)CCCC1=O | -2
COCCCNC(=O)CN(CCc1ccccc1)S(=O)(=O)c1ccc(C)cc1 | 6
COc1ccc(-c2cc(CNC(C)=O)on2)cc1 | 7
